Source: PubChem
VACV mCherry inh – inhibitors of vaccinia virus infection (mCherry reporter signal) | Vaccinia virus mCherry reporter infection, fluorescence; about a quarter of the inactives have no number | Potency, µM (titrated, usually from 36.5 µM), for the others: top-dose activity change, negative = inhibition, hits mostly inhibitors | 0.63% of 310,000 active; active = well fitted inhibition curve with a large enough effect; inconclusive = small, poorly fitted or top-dose-only effect; inactive = no such curve, though single readings can be large or run the other way; tested in A549 cells; note: nearly all actives have a fitted effect of over 35% in size; inactives centre near -10
VACV Venus inh – inhibitors of vaccinia virus (Venus reporter); 0.46% of 330,000 active; AID 720580; Vaccinia virus Venus reporter expression, fluorescence; Potency, µM (titrated, usually from 36.5 µM), for inactives: top-dose activity change, negative = inhibition, hits mostly inhibitors; active means well fitted inhibition curve with a large enough effect; inconclusive means small, poorly fitted or top-dose-only effect; inactive means no such curve, though single readings can be large or run the other way; tested in A549 cells; note: nearly all actives have a fitted effect of over 30% in size; inactives centre near -10
The depositor's hits bear a star; i = inactive; ? = inconclusive; . = no result given; & = joins results of further samples; [ ] = dose if it differs, or a comment. % is set by controls: 0 for no effect and ±100 for the full control effect; potency is the fitted concentration of half-maximal effect. Rows are unselected. Share with any hit: about 0.82%.

SMILES	VACV mCherry inh	VACV Venus inh
CCN1CCN(C(c2ccc(OC)cc2)c2c(O)cc(C)n(CCOC)c2=O)CC1 (configuration not stated)	-8.4%	-10.4%
CCn1c(C)c(C)c2cc(C(=O)NCc3ccc(OC(C)C)cc3)ccc21	-11.3%	-14.8%
CN(C)c1ccc(N2C(=O)CSC2=S)cc1	241.4%[activator]	321.3%[activator]
Cc1cc(C)cc(C(=O)N2CCC(C(N)=O)CC2)c1	-20.6%	-8.0%
O=C(CN1CCC(NC(=O)C2CCCCC2)CC1)NCc1ccco1	-32.1%	-10.5%
COc1ccc(CCC(=O)Nc2cccc(Cl)c2)cc1	-6.2%	-12.0%
CNC(=O)Oc1c(C)[nH]ccc1=O	-1.3%	2.0%
CCOc1ccccc1N(C)C(=O)c1nn(-c2ccc(C)cc2)c(=O)c2c1c1ccccc1n2C	-8.5%	-9.2%
CCOC(=O)c1c(S(=O)(=O)N2CCCC(C(=O)Nc3cccc(C)n3)C2)c(C)n(C)c1C (configuration not stated)	-2.1%	0.2%
Cc1ccc(C(=O)NCC(=O)NCC(=O)OCc2ccc(F)cc2)cc1	-4.3%	-4.2%
Cc1cc(C)c(S(=O)(=O)N(C)CC(=O)NCc2ccccn2)c(C)c1	i	-8.6%
CC(C)NC(=O)C(=O)c1cn(C)c2ccccc12	-3.2%	-0.8%
COc1ccc(NC(=O)/C(Cl)=C(/Cl)S(=O)Cc2ccccc2)cn1 (configuration not stated)	7.08µM*	8.91µM*
COc1ccc(CNC(=O)C2=CCN(S(=O)(=O)c3ccc(C)cc3)CC2)cc1	28.2%	-12.1%
Cn1c(N)c(C(=O)c2ccc(Cl)cc2)c(=O)n(C)c1=O	-12.5%	-1.6%
Cn1nc(-c2ccncc2)nc2c(=O)n(C)c(=O)nc1-2	0.891µM*	1µM*
N#Cc1cnn(Cc2ccccc2)c1/N=C/N1CCOCC1	-2.1%	7.2%
O=C(N/N=C/c1ccc2ncccc2c1)c1cccc([N+](=O)[O-])c1	-12.9%	-7.3%
CCc1cccc(CC)c1NC(=O)COc1ccccc1C(=O)c1cc(C#N)c(=O)n(C2CCCCC2)c1	-2.8%	-21.0%
COCCn1c(SCC(=O)c2ccc3c(c2)OCCO3)nnc1C(C)C	-9.4%	-4.9%

The final 4 compounds of the part before lead into the next:
SMILES	VACV mCherry inh	VACV Venus inh
N#Cc1cnn(Cc2ccccc2)c1/N=C/N1CCOCC1	-2.1%	7.2%
O=C(N/N=C/c1ccc2ncccc2c1)c1cccc([N+](=O)[O-])c1	-12.9%	-7.3%
CCc1cccc(CC)c1NC(=O)COc1ccccc1C(=O)c1cc(C#N)c(=O)n(C2CCCCC2)c1	-2.8%	-21.0%
COCCn1c(SCC(=O)c2ccc3c(c2)OCCO3)nnc1C(C)C	-9.4%	-4.9%
CCOc1ccc(/C=N/NC(=O)c2ccc(F)cc2)cc1CN1CC2CC(C1)c1cccc(=O)n1C2 (configuration not stated)	i	-18.7%
Cc1ccc(S(=O)(=O)NNC(=S)NCC2CCCO2)cc1 (configuration not stated)	-17.9%	10.2%
COc1ccc2c(c1)c1nc3ccccc3nc1n2CCn1c(=O)oc2ccccc21	i	0.8%
COc1cccc(-n2cc(C(=O)O)c3ccccc3c2=O)c1	-6.2%	-13.4%
Clc1ccc(/C=N/Nc2ncnc3ccccc23)cc1Cl	-25.7%	-25.3%
CCN(CC)CCN(C(=O)c1ccco1)c1nc2c(C)c(C)ccc2s1	-22.7%	-14.6%
CC1(C)CC(c2nc(-c3ccccc3)cs2)CCS1 (configuration not stated)	i	-11.6%
CCc1nc2ccccc2c(C(=O)OCC(=O)NCc2ccco2)c1C	-16.7%	-8.9%
O=C(Nc1ccc2c(c1)OCCO2)C(=O)NC1CC1	-6.3%	1.9%
CC(C)c1ccc(OC(=O)c2cc(-c3ccc(Cl)cc3)on2)cc1	i	-15.4%
Cc1ccc(NS(=O)(=O)c2cc3c4c(cccc4c2)C(=O)NC3=O)cc1	-22.1%	-21.5%
O=c1oc2cc([N+](=O)[O-])ccc2nc1/C=C(\O)c1cccc(Br)c1	-9.1%	-2.7%
CS(=O)(=O)c1ccc(C(=O)NCC(c2ccco2)N2CCCCC2)cc1 (configuration not stated)	1.5%	8.5%
CC(=O)Nc1ccc(-c2ccccc2)s1	i	-5.3%
CC(C)(C)c1ccc(NC(=O)c2ccccc2)c([N+](=O)[O-])c1	i	-13.6%
COc1cccc(C(=O)Nc2ccc3nc(SCc4ccc(C)cc4)sc3c2)c1	-27.4%	-11.2%
CCCCCC(=O)N1C[C@@H](O)[C@H](n2cc(COC(=O)c3ccccc3)nn2)C[C@@H]1c1ccccc1	-6.9%	3.5%
Cc1ccc2c(c1)c(N=O)c(O)n2Cc1ccc(Cl)cc1	-16.2%	-21.8%
C=CCNC(=O)CSc1nc2sc(C)c(C)c2c(=O)[nH]1	-9.1%	-3.6%
CC(C)CN1Cc2ccccc2Oc2cc(Br)ccc2S1(=O)=O	?	-21.9%
CCOC(=O)N1CCN(CC(O)COc2ccc(OC)cc2C(C)(C)C)CC1 (configuration not stated)	-14.7%	-5.6%
Cc1ccc(S(=O)(=O)N2CCOC2CNC(=O)C(=O)NCc2ccncc2)cc1 (configuration not stated)	i	-13.5%
COC(=O)c1nn(-c2ccccc2)c(Cl)c1/C=N/OCc1ccc(Cl)cc1Cl	.	-2.1%
COc1ccc(C2C(C(=O)O)CCC(=O)N2c2ccc(OC)cc2)cc1 (configuration not stated)	i	-8.8%
COC(=O)c1ccc(C2C(C#N)=C(C)NC3=C2C(=O)CC(C)(C)C3)cc1 (configuration not stated)	-8.7%	-5.3%
CCCC(C)(COC(N)=O)COC(=O)NC(C)C (configuration not stated)	-17.0%&-2.2%	-10.6%&-13.7%
CC(Sc1nnc(-c2ccc(OC(F)F)cc2)n1N)C(=O)NCC1CCCO1 (configuration not stated)	-19.8%	-11.8%
O=[N+]([O-])c1ccc(S(=O)(=O)NCCc2ccncc2)cc1	-15.4%	-11.3%
Cc1c(C(=O)Nn2cnnc2)oc2ccccc12	.	-19.1%
CC(=O)Nc1ccc(S(=O)(=O)Nc2c(C)nn(-c3ccccc3)c2C)cc1	-6.9%	-19.6%
NC(=O)C1CCCN(CC(=O)N2CCN(c3ccccc3)CC2)C1 (configuration not stated)	?	-0.7%
Cc1cccnc1C1=NOC(Cc2ccccc2)C(=O)N1Cc1ccc2c(c1)OCO2 (configuration not stated)	7.9%	-10.6%
CCN(C[C@H]1N[C@@](C)(C(=O)OC)[C@H]2C(=O)N(C)C(=O)[C@@H]12)C(=O)c1ccccc1	-14.8%	-4.8%
Cc1ccc(Cl)cc1NC(=O)C1CCCN(S(=O)(=O)c2c(C)noc2C)C1 (configuration not stated)	-11.3%	-6.9%
CC(/C=N/NC(=O)CSc1nnc(SCc2ccccc2)s1)=C\c1ccco1	i	-15.5%
Nc1ccc(NC(=S)Nc2ccccc2)cc1	-6.5%	-13.9%
CCCOc1c(OC)cc(Cl)cc1C1NC(=O)NC(C)=C1C(=O)NCc1ccccc1 (configuration not stated)	-17.1%	-10.3%
CCc1ccccc1NC(=O)Nn1cnnc1	i	-3.7%
COc1ccc2[nH]cc(/C=C(/C#N)S(=O)(=O)c3ccccc3)c2c1	-27.1%	-27.8%
CSc1ccccc1C(=O)C1CCCN(C(=O)CCN2CCCO2)C1 (configuration not stated)	-6.1%	-1.4%
Cc1cccc(NC(=O)CSc2cn(CC(=O)N3CCCCCC3)c3ccccc23)c1	-6.4%	-6.2%
CCN(CC)CCNC(=O)c1ccc(-c2nc(CN3CCc4ccccc43)c(C)o2)cc1	-11.6%	-1.3%
Cc1ccc(-c2csc(=Nc3ccccc3)n2Cc2ccc3c(c2)OCO3)cc1	-7.0%	-5.0%
CCS(=O)(=O)N1CCN(c2ccnc3cc(Cl)ccc23)CC1	i	-13.2%
Cc1cnc(C(=O)N2CCc3c([nH]c4ccccc34)C2c2ccc(F)cc2)cn1 (configuration not stated)	-12.8%	-12.5%
OC(c1ccc(Cl)c(Cl)c1)c1ncc(-c2ccccc2Cl)[nH]1 (configuration not stated)	-23.3%	-9.4%
Cc1ccc(OCC(=O)N2CCN(Cc3ccc(F)cc3)CC2)cc1	-6.7%	-8.5%
CCOc1ccc(CN(C)C(=O)CCl)cc1	?	-21.3%
CCOc1ccccc1-c1nc(C(N)=O)c2[nH]c(=O)n(-c3ccccc3)c2n1	.	-7.8%
COc1ccccc1NC(=O)CSC1=Nc2ccccc2C2=NC(CC(=O)NCc3ccco3)C(=O)N12 (configuration not stated)	-14.9%	-3.3%
Cc1cc(C(=O)N/N=C/c2ccc(N(C)C)cc2)c2ccccc2n1	-22.2%	-16.7%
Cc1cc(C(=O)NCc2ccc(F)cc2)n(-c2ccccc2)n1	-5.0%	-2.5%
COc1ccc(OCC(O)CNC2CCCC2)cc1 (configuration not stated)	-21.9%	-5.7%
COc1ccc(NC(=O)CNC(=O)c2ccc([N+](=O)[O-])cc2)cc1	i	-24.7%
CC(=O)Cc1nsc(Nc2ccccc2)n1	-10.2%	-3.9%
CCc1nnc(NC(=O)c2ccc(S(=O)(=O)N3CCCCCC3)cc2)s1	-21.4%	-16.5%
CC(C)Cc1ccc(/C(=N/O)C(=O)O)s1	.	-6.3%
O=C(Nc1nnc(SCCN2CCOCC2)s1)C1CC(=O)N(c2ccccc2)C1 (configuration not stated)	-18.0%	-12.9%
COc1ccc(NC(=O)CCN2C(=O)c3ccccc3S2(=O)=O)cc1	-13.9%	-3.0%
CC(C)=CCC[C@H](C)C[C@@H]1Cc2[nH][nH]c(=O)c2[C@H](c2ccc(F)cc2)O1	-6.4%	-7.9%

(more compounds)
SMILES	VACV mCherry inh	VACV Venus inh
O=C(CN1CCN(C2CCS(=O)(=O)C2)CC1)N1N=C(c2ccc(Cl)cc2)CC1c1ccco1 (configuration not stated)	-22.2%	?
CN(C(=O)c1ccc(NC(=O)Cc2ccc(NC(=O)C3CCCN(C(=O)C4CCC4)C3)cc2)cc1)C1CC1 (configuration not stated)	i	-5.3%
Cc1cc(C)cc(NC(=O)NCCn2nnc3cc(S(=O)(=O)N(C)C)ccc32)c1	-8.5%	-10.2%
O=C(CC1C(=O)NCCN1Cc1ccc(Cl)c(F)c1)NCCc1cccnc1 (configuration not stated)	-12.1%	-7.2%
CC1Oc2ccc(C#N)cc2N(Cc2ccc(F)cc2)C1=O (configuration not stated)	26.2%	2.5%
CC(NC(=O)c1ccccc1)C(=O)Nc1ccccc1 (configuration not stated)	-16.4%	-8.8%
O=C(c1ccccn1)c1ccc2ccccc2n1	-5.8%[7.34 µM]	5.6%[7.34 µM]
CC(C)(C)c1ccc(CC(=O)N2CCC2(C)C(=O)NS(=O)(=O)c2ccccc2C(F)(F)F)cc1 (configuration not stated)	i	-7.1%
CCOC(=O)C1=CC[C@@H](c2ccccc2)N(S(=O)(=O)c2ccc(C)cc2)[C@H]1c1ccccc1C	13.3%	-4.1%
CCN(C(=S)Nc1cccc(C)c1)c1ccccc1	i	-10.6%
Cc1nnc(N2CCN(c3ccccc3)CC2)[nH]c1=O	-6.7%	4.6%
O=C(Nc1ccc2c(c1)OCCO2)C1CCCN(S(=O)(=O)c2cnc[nH]2)C1 (configuration not stated)	6.2%	6.8%
O=C(NCc1cccs1)C1CC(c2ccc(Cl)cc2)=NO1 (configuration not stated)	-5.4%	-13.6%
CCN(CC)S(=O)(=O)c1ccc(-c2nnc(SCc3nnc(-c4ccc(C)cc4)o3)o2)cc1	0.0011µM*	?
Cc1ccc2c(C(=O)CNc3nccs3)c[nH]c2c1	-14.4%	-13.3%
Cc1ccc(C)c(NS(=O)(=O)c2ccc3c(c2)Cc2cc(S(=O)(=O)Nc4cc(C)ccc4C)ccc2-3)c1	?	?
COc1cc(C(=O)OCC(=O)N2CCNC2=O)cc(Cl)c1OC	-11.3%	-14.6%
COc1ccc(C(=O)c2nccc3ccccc23)cc1	i	2.6%
CNc1ccc(/C=C2\C=Cc3ccccc32)cc1Br	?	-23.5%
CCCOc1ccc(C2C(=O)N(C3CCCCCC3)CC(=O)N2CCC)cc1OC (configuration not stated)	-7.4%	-7.4%

Complete entries, quoted from the list. Order of values: VACV mCherry inh | VACV Venus inh
Cc1ccc(C)c(NS(=O)(=O)c2ccc3c(c2)Cc2cc(S(=O)(=O)Nc4cc(C)ccc4C)ccc2-3)c1 is listed as ? | ?
CCN(C(=S)Nc1cccc(C)c1)c1ccccc1 is listed as i | -10.6%
O=C(CC1C(=O)NCCN1Cc1ccc(Cl)c(F)c1)NCCc1cccnc1 (configuration not stated) is listed as -12.1% | -7.2%
CC(C)(C)c1ccc(CC(=O)N2CCC2(C)C(=O)NS(=O)(=O)c2ccccc2C(F)(F)F)cc1 (configuration not stated) is listed as i | -7.1%
CC1Oc2ccc(C#N)cc2N(Cc2ccc(F)cc2)C1=O (configuration not stated) is listed as 26.2% | 2.5%
